Six1-Eya2 blk: Six1/Eya2 interaction inhibition; Q15475+O00167; AlphaScreen GST-Six1/His-Eya2 binding, biochemical; active compounds read low; control for the full effect not named in the record; activity change, % (test concentration not listed); 360,000 compounds, 0.56% hits; AID 651725; in the data active = activity change below about -65%; inconclusive = about -30% to -65%; inactive = above about -30%; further: on the % scale 0 is the no-effect control and ±100 the full control effect
Target sequence (O00167 whole entry, looked up): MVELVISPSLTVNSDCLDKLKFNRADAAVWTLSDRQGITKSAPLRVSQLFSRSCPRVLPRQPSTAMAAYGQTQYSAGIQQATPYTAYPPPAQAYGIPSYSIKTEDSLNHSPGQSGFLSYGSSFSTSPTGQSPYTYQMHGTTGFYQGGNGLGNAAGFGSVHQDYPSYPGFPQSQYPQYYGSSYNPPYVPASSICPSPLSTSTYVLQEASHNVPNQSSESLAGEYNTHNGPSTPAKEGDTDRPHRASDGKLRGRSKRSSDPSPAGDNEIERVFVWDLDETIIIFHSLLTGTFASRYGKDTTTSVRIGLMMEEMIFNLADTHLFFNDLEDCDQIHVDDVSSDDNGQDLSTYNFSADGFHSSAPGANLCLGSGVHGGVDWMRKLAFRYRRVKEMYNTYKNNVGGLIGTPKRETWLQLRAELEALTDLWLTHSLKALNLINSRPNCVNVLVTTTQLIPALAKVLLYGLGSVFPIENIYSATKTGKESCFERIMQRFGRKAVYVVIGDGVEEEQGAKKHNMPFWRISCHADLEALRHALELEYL
Target sequence (Q15475 whole entry, looked up): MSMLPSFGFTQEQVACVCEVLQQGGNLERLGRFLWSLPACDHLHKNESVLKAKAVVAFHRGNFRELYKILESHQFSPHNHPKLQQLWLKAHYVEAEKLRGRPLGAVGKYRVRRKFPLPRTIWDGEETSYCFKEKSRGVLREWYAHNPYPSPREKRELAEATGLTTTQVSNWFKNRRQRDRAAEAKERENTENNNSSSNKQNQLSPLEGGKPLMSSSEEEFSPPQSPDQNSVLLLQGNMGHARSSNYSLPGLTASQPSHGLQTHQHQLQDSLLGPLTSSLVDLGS
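Homogeneous AlphaScreen proximity assay pairing GST-Six1 with His-tagged Eya2 (added as 5X mix: 250 nM and 500 nM) in 50 mM Tris pH 8.0, 300 mM NaCl, 1 mM TCEP. Glutathione donor and nickel acceptor beads; 1 h, 37 °C, dark.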
TRPML1 ag: activates the human TRPML1 channel; Q9GZU1; TRPML1-expressing cells, Ca2+ dye fluorescence, FDSS; host cell line not named in the record; reference of the full effect not given here; activation, % (no concentration beside the values); 410,000 compounds, 0.12% hits; AID 624414; in the data active = activation above about 50%; inconclusive = about 30% to 50%; inactive = below about 30%; further: 0% is about no effect; the text of the record puts the active cut at 80%
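Calcium fluorescence on an FDSS kinetic reader gave the read-out. Tet-induced TRPML1-DL cells were plated overnight, dye-loaded (Ca8 with quencher, 45-90 min, room temperature, dark), then read 110 s after compound addition, and again 110 s after 4uM final 54-4 (EC80).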
CtBP-E1A inh: CtBP/E1A binding inhibition | AlphaScreen GST-E1A/His-CtBP binding, 1536-well; active compounds read low; control for the full effect not named in the record | activity change, % (test concentration not listed) | 340,000 compounds, 0.49% hits | AID 651724; in the data active means activity change below about -65%; inconclusive means about -30% to -65%; inactive means above about -30%; further: on the % scale 0 is the no-effect control and ±100 the full control effect
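Steps: dispense buffer (Tris pH 8.0, NaCl 300 mM, TCEP 1 mM, BSA, Tween 20); add 5X protein mix (GST-E1A, His-CtBP, 125 nM each); pin 23 nL compound; 2 h at 37 °C, dark; add 5X beads (50 ug/mL); 1 h; read.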
TRPML1 blocker: blocks the human TRPML1 channel; Q9GZU1; TRPML1-inducible cells, Ca2+ dye fluorescence, FDSS; active compounds read low; inhibition of EC80 agonist-evoked calcium signal; activity change, negative = inhibition, % (no concentration beside the values); 390,000 compounds, 0.02% hits; AID 624415; in the data active means activity change below about -50%; inconclusive means about -30% to -50%; inactive means above about -30%;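 further: stimulus is agonist 54-4 at its EC80 concentration; on the % scale 0 is the no-effect control and ±100 the full control effect; compound concentration not given in the record; the text of the record puts the active cut at -80%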
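TRPML1-DL cells, Tet-induced overnight (~16 h, 37 °C) at 1,500 cells/well, were loaded with Ca8 no-wash dye plus quencher for 45-90 min at room temperature. Compounds were pinned during FDSS kinetic reading; agonist 54-4 at EC80 (4 uM final) then added.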
D2 ag: agonists of human D2 dopamine receptor (beta-arrestin). P14416. DiscoveRx PathHunter D2 beta-arrestin, luminescence, 90 min; 100% = 57 uM dopamine signal. activation, % (concentration not given with the values). 360,000 compounds, 0.084% hits. AID 624465; in the data active = activation above about 40%; inconclusive = about 15% to 40%; inactive = below about 15%; further: the text of the record calls up to 30% inactive
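Agonist mode: compounds alone added to overnight-plated D2 PathHunter cells for 90 min at 37 C, with 57 uM final dopamine (EC100) defining full response. Beta-arrestin recruitment detected by chemiluminescent reagent, read after 1 h at ambient temperature.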
PINK1 modulator: changes PINK1 expression; PINK1 immunofluorescence, high-content cytometry, 24 h; Potency, µM (titrated, usually from 76.6 µM), inactives show at the top dose activation (PINK1 increase), hits mostly activators; AID 624263; 410,000 compounds, 0.2% hits; active = well fitted activation curve with a large enough effect; inconclusive = small, poorly fitted or top-dose-only effect; inactive = flat fitted curve, though single readings scatter; cell line not stated here;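 further: potency means the concentration at half of the fitted maximal effect; % of control where 0% means no effect; nearly all actives have a fitted effect of over 65% in size; a mitochondrial uncoupler was the plate control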
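Measures PINK1 amount and localization on or inside mitochondria by immunofluorescence. Stable cells get compounds at 5 concentrations for 24 hours before fixation and staining; CCCP controls included.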
* marks the source's active call; other numbers are inactive results; u = inconclusive; x = not tested or not shown; [ ] = remark or other dose.

SMILES	Six1-Eya2 blk	TRPML1 ag	CtBP-E1A inh	TRPML1 blocker	D2 ag	PINK1 modulator
CCCCn1c2nc3ccccc3nc2c2c(=O)n(CC(C)C)cnc21	5	x	-17	x	-5.4	1.2%
CC(=O)c1cccc(Nc2cc(C)nc3nc(-c4ccccc4C)nn23)c1	x	2.0	x	12	x	0.0%
CCN(C(=O)COC(=O)CCCOc1ccccc1)c1c(N)n(Cc2ccccc2)c(=O)[nH]c1=O	-1	2.3	-19	-1	-0.2	0.5%
CCOc1ccc(C(=O)N2CCn3c2nc2ccccc23)cc1	7	0.5	9	-9	-0.2	0.9%
Cc1ccccc1N1CC(C(=O)Nc2ccc(S(=O)(=O)NCC3CCCO3)cc2)CC1=O (stereo unspecified)	-2	-0.6	14	-12	-6.0	2.5%
O=C(C1CCCN(S(=O)(=O)c2cccc3nsnc23)C1)N1CCCCCC1 (stereo unspecified)	5	3.6	-3	-6	6.2	-1.5%
CN1CCn2cnc(C(=O)Nc3ccc(Cl)cc3)c2C1=O	-3	-0.5	0	-4	-8.9	1.4%
CCOc1ccc(NC(=O)CCNc2c(N3CCCC3)c(=O)c2=O)cc1	-5	-0.2	-8	18	-1.5	-1.1%
CCOc1ccc(Cl)cc1S(=O)(=O)N1CCC(C(=O)N2CCCC2)CC1	3	-0.4	2	-1	-4.6	0.1%
COc1cc2[nH]c(=S)n(NC(=O)c3ccccc3)c(=O)c2cc1OC	-7	2.3	-7	11	-4.8	0.6%[38.3 µM]
CC1(C(=O)NCc2ccco2)CCN1C(=O)C1(c2ccccc2)CC1 (stereo unspecified)	14	-0.5	-8	x	14	-0.9%
CSC[C@H]1CN(c2ccc(Br)cc2)C(=O)[C@@H]1CC(=O)Nc1ccccc1	-1	0.4	0	-9	-3.9	0.5%
CCOC(=O)/C(C#N)=C/c1cccn1-c1ccc(Cl)cc1	-6	1.4	2	2	-0.9	5.2%
COC(=O)c1ccc(NC(=O)CCc2c(C)nn(-c3ccc(N4CCCCC4)nn3)c2C)cc1	x	0.6	x	29	x	0.6%
CN(Cc1ccccc1)C(=O)c1[nH]cnc1C(=O)Nc1cccc(Cl)c1	-2	-0.3	x	21	0.1	8.6%
Cc1ccc(C)c(S(=O)(=O)Nc2ccc(C(=O)NCC(c3ccco3)N3CCCCC3)cc2)c1 (stereo unspecified)	-11	1.1	14	u	-5.0	0.5%
COc1cccc(NC(=O)C2CCC(CNS(=O)(=O)c3ccc4c(c3)CCCC(=O)N4)CC2)c1 (stereo unspecified)	x	-0.5	x	-2	x	-0.3%
COC(=O)c1cc(N=C(N)N=C(N)N)cc(C(=O)OC)c1	7	0.1	x	25	-0.9	-0.9%
COc1ccc2cc(C#N)c(N3CCOCC3)nc2c1	-7	-0.5	21	-15	1.1	0.6%
O=C(c1ccccc1)c1ccc(C(=O)N2CCCC(C(F)(F)F)C2)cc1 (stereo unspecified)	-3	-0.4	4	6	-1.0	1.4%
O=C(N/N=C/c1ccccc1)c1n[nH]c2c1CCCC2	1	-0.3	x	21	5.0	2.2%
O=C(Nc1ccc2ccccc2c1)c1cnccn1	-4	2.9	-6	-2	-0.7	1.0%[38.3 µM]
NC(=O)CC(NC(=O)Cc1cccc2ccccc12)c1ccc(N2CCCCCCC2)c([N+](=O)[O-])c1 (stereo unspecified)	-27	-0.5	-16	6	-6.2	6.3%
CCOc1ccc(-n2cc(-c3ccc(OC)c(OC)c3)[nH]c2=S)cc1	-13	0.4	-17	-16	1.3	4.2%
Cc1cc(=O)[nH]c(SCc2cccc3cccnc23)n1	0	-0.4	13	10	6.2	3.4%

Complete entries, quoted from the list. Values in the order: Six1-Eya2 blk | TRPML1 ag | CtBP-E1A inh | TRPML1 blocker | D2 ag | PINK1 modulator
Results for `CCOc1ccc(-n2cc(-c3ccc(OC)c(OC)c3)[nH]c2=S)cc1` → -13 | 0.4 | -17 | -16 | 1.3 | 4.2%
Results for `COc1ccc2cc(C#N)c(N3CCOCC3)nc2c1` → -7 | -0.5 | 21 | -15 | 1.1 | 0.6%
Results for `CC1(C(=O)NCc2ccco2)CCN1C(=O)C1(c2ccccc2)CC1` (stereo unspecified) → 14 | -0.5 | -8 | x | 14 | -0.9%
Results for `CCOc1ccc(NC(=O)CCNc2c(N3CCCC3)c(=O)c2=O)cc1` → -5 | -0.2 | -8 | 18 | -1.5 | -1.1%
Results for `CCOc1ccc(Cl)cc1S(=O)(=O)N1CCC(C(=O)N2CCCC2)CC1` → 3 | -0.4 | 2 | -1 | -4.6 | 0.1%

The list goes on.
SMILES	Six1-Eya2 blk	TRPML1 ag	CtBP-E1A inh	TRPML1 blocker	D2 ag	PINK1 modulator
CCCc1nn2c(=O)cc(COC(=O)c3cccc(NC(=O)COc4ccc(F)cc4)c3)nc2s1	x	0.2	x	-13	x	1.4%
CSc1ccc(-c2ccco2)nn1	-2	-0.7	0	29	0.9	0.9%
Cc1ccc(CN2C(=O)SC(Nc3ccccc3)C2=O)cc1 (stereo unspecified)	x	2.0	x	5	x	-0.1%
CC1CCCN(S(=O)(=O)c2ccc(C(=O)Nc3nnc(C4CC4)o3)cc2)C1 (stereo unspecified)	-22	6.0	u	6	-7.4	0.7%
O=C(NCc1ccccc1)NC(=O)c1ccncc1	1	0.3	5	-9	-2.2	-1.2%[38.3 µM]
O=C(CCC(=O)Nc1ccccc1)N/N=C/c1ccccc1F	9	1.2	-6	21	-0.4	-1.1%
O=C1c2ccccc2C(=O)N1c1n[nH]c(CCc2ccccc2)n1	4	0.3	5	5	2.4	x
COc1ccc(N2CCN(C(=O)CSc3nc4nc(C)cc(C)n4n3)CC2)cc1	-7	1.5	-1	-2	-1.2	0.5%
COc1cccc2sc(N(CCCN(C)C)C(=O)c3ccc(S(=O)(=O)N4CCc5ccccc5C4)cc3)nc12	-26	0.2	-17	-2	-2.6	2.1%
C=CCNC(=S)N1CCc2[nH]c3ccccc3c2C1	-22	-0.4	-11	28	-5.3	2.9%
O=C(Nc1ccc2oc(-c3ccc(Br)cc3)nc2c1)c1cc2ccccc2o1	x	-1.1	x	-5	x	-0.3%
COc1ccc(S(=O)(=O)NCCCN2CCCC2=O)c(OC)c1	3	0.4	-2	-15	-3.7	-0.6%
O=C(Cn1c(-c2ccco2)nc2ccccc21)N1CCCCC1	0	-0.2	4	-5	-2.9	0.1%
Cn1c2c(c(=O)n(C)c1=O)C(C(F)(F)F)(C(F)(F)F)N=C(C1CCCCC1)N2	2	-0.6	5	15	-1.9	5.8%
O=C(O)CCCN1C(=O)/C(=C\c2ccc(-c3nc4ccccc4s3)o2)SC1=S	u	x	u	x	-1.0	5.3%
Cn1cc(/C=C/c2nc3ccccc3c(=O)n2-c2cccc([N+](=O)[O-])c2)c2ccccc21	-10	0.7	-8	-15	-5.5	6.1%
COc1ccc(/C=C/c2ccc3c(Br)ccc(O)c3n2)cc1	1	-0.7	-2	-6	-1.4	14%
Cc1cc(Br)c(NC(=O)CN2CCCC2)c(Br)c1	7	-0.4	1	1	-1.2	-1.2%
COc1cc(/C=C2\SC(=S)N(CC(=O)O)C2=O)ccc1OS(=O)(=O)c1ccc(C)cc1	-19	0.5	-7	2	0.2	2.2%
Cc1ccc2c(=O)c(C(=O)NCc3cccs3)c[nH]c2c1	-10	3.4	-17	15	-0.5	1.5%[38.3 µM]
CC12CCC(=O)N1C(C(=O)O)Cc1c2[nH]c2ccccc12 (stereo unspecified)	3	1.2	7	20	-3.3	0.8%
CN(C)S(=O)(=O)c1ccc(C(=O)NCCC(=O)N2CCCC2)cc1	6	-0.6	10	-1	-0.6	-0.4%
O=C(NC1CCCN(Cc2ccc(Cl)cc2)C1)c1cnc2ccccn2c1=O (stereo unspecified)	-9	0.5	-7	-3	-3.5	2.6%
COc1ccc(OC)c(CNC(=O)NCc2noc3ccc(C)cc23)c1	x	1.8	x	-11	x	-0.8%
Cc1ccc(NS(=O)(=O)c2coc(C(N)=O)c2)cc1F	9	0.7	-13	1	-5.2	-0.4%

Results in PINK1 modulator, D2 ag and TRPML1 blocker (2 entries from above):
| smiles | PINK1 modulator | D2 ag | TRPML1 blocker |
| --- | --- | --- | --- |
| O=C(Nc1ccc2oc(-c3ccc(Br)cc3)nc2c1)c1cc2ccccc2o1 | -0.3% | x | -5 |
| COc1ccc(S(=O)(=O)NCCCN2CCCC2=O)c(OC)c1 | -0.6% | -3.7 | -15 |

Next entries.
SMILES	Six1-Eya2 blk	TRPML1 ag	CtBP-E1A inh	TRPML1 blocker	D2 ag	PINK1 modulator
O=C(OCC(=O)N1CCN(C(=O)c2ccco2)CC1)c1c(Cl)cccc1Cl	4	0.5	6	49	-11	-0.3%
Cc1ccc(S(=O)(=O)N(CC(=O)NCc2ccco2)C2CCCCC2)cc1	-2	-0.5	8	2	-1.2	7.4%[38.3 µM]
CCc1ccc(C2c3c(-c4ccccc4)n[nH]c3C(=O)N2c2ccc(C(=O)O)cc2)cc1 (stereo unspecified)	x	-0.3	x	-5	x	0.0%
O=C(OCC(=O)N1CCCC1)c1cc(F)c(F)cc1Cl	0	0.8	9	-5	-1.5	1.6%
Cc1cc(C)cc(N(CC(=O)Nc2c(C)cc(C)cc2C)S(=O)(=O)c2c(C)nn(C)c2C)c1	x	0.5	x	1	x	-0.1%
COc1cc(C)c(C(C)C)cc1S(=O)(=O)N1CCN(C)CC1	-2	-0.6	4	11	-0.3	-1.6%[38.3 µM]
O=C(Nc1cc(F)c(Br)cc1F)c1ccc(Cl)cc1	3	-0.4	12	-5	-3.8	8.5%
COc1ccc(CCNC(=O)Cn2c(=O)[nH]c3ccsc3c2=O)cc1OC	3	0.0	x	9	-3.4	0.6%
Cn1cc(C(=O)C(=O)NCCc2ccccc2)c2ccccc21	3	-0.6	8	-9	9.6	2.5%
O=C(c1oc(=O)c2ccccc2c1-c1ccccc1)N1CCC(O)CC1	3	-0.3	0	3	-9.3	1.6%
COc1ccccc1S(=O)(=O)Cc1ccc(C(=O)NCc2cccs2)o1	5	0.5	5	-14	0.0	-1.0%
O=c1[nH]ncc(N/N=C\c2ccc(O)cc2O)c1Cl	-28	-0.4	-4	0	1.5	3.1%
Cc1ccc(-n2nc3c(N4CCC(C(=O)N5CCN(C)CC5)CC4)nnc(C)c3c2C)cc1	-4	-1.5	0	12	-0.7	0.3%
CCc1ccc(Nc2nnc(SCC(=O)c3c(N)n(C4CC4)c(=O)[nH]c3=O)s2)cc1	4	0.0	8	7	0.6	5.2%
CCC(C)NC(=S)N1CCN(Cc2ccccc2)CC1 (stereo unspecified)	5	0.4	3	-8	-2.0	1.6%
Clc1ncccc1-c1nnn(-c2ccccc2Br)n1	9	1.6	-2	49	-1.8	0.9%
COc1ccc(/C=C2/C(=O)N=C(N)N2C)cc1OC	-5	1.6	-6	1	-0.6	24%
O=C(NCc1ccc(C(F)(F)F)cc1)c1ccc(-c2ccc(F)c(F)c2)c2ccoc12	13	2.2	20	x	-4.3	2.1%
